High-throughput results from PubChem BioAssay.
Vif TR-FRET: HIV-1 Vif–A3G interaction blockers – biochemical, TR-FRET, GST-Vif 1-94, biotin-A3G peptide, dose response retest, primary screen (AID 1117319); TR-FRET GST-Vif / biotin-A3G peptide binding; higher % means a stronger effect; test concentration not given here; strong numbers were not always called active; one-dose inhibition, %; IC50 in µM for titrated hits; hit rate 0.57% among 260,000;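 active = above the screen mean plus three standard deviations and confirmed in dose response; inconclusive = results disagree or hit not tested in dose response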;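 note: Vif residues 1-94 fused to GST binding biotinylated APOBEC3G peptide 110-148; 0% = full assay without inhibitor and 100% = GST in place of GST-Vif; retest series ran down from 100 µM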
Calb FLC: C. albicans growth modulation with fluconazole; C. albicans CaCi-2 (fluconazole-resistant clinical isolate) + fluconazole, Alamar Blue growth, 48 h; growth inhibition, % (concentration not given with the values); hit rate 0.57% among 300,000;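 active = most replicates above 75%; inconclusive = exactly half above 75%; inactive = most below 75%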;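 note: all wells also contain fluconazole at 8 µg/ml as a sub-toxic cotreatment; 0% = median of DMSO wells and 100% = median of geldanamycin control wells; wells of about 8 µL received 7.5 nL stock; the first replicate is given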
MLL AF4-AF9 inh: MLL-AF4/AF9 protein interaction inhibition; hit rate 0.47% among 350,000; P42568; AlphaScreen, biotin-AF4 peptide binding to FLAG-AF9; inhibition, % at 10 µM;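 active = every replicate reaching a set inhibition limit, whatever the replicate mean, cut at about 25% in these data; inconclusive = mean inhibition reaches that limit but some replicates miss it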;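 note: 0% = plate neutral control median and 100% = total signal loss; the record names both 10 and 1 µM as test concentration; the first replicate is given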
Target sequence (P42568 whole entry, looked up): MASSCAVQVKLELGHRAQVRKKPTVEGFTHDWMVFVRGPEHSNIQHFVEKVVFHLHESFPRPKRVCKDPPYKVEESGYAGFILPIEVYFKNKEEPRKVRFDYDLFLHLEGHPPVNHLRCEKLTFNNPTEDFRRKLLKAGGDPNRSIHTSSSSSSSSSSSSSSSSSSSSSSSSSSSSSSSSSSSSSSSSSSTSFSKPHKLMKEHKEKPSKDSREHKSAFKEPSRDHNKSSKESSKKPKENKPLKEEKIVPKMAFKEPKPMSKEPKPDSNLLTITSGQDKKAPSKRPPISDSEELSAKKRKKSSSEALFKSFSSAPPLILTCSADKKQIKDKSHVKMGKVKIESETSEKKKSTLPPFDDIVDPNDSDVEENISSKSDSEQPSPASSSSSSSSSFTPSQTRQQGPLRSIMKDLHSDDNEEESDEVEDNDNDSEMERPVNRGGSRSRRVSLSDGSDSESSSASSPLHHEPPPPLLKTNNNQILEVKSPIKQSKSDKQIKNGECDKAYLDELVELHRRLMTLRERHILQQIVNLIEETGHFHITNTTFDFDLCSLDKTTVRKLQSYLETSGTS
Bfl-1 A1 inh: inhibitors of the anti-apoptotic protein A1, read as caspase activation | MEF A1-2A-BIM cells, Caspase-Glo 3/7 luminescence, 3 h; percent of clofoctol response, vehicle zero | caspase activation, % (concentration not given with the values) | hit rate 0.066% among 330,000;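 active = over half of replicate activation scores above 10%, or exactly half above 10 with the replicate mean above 10; inconclusive = replicate mean below 10 yet half the replicates above 10; inactive = over half of replicates below 10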;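 note: wells of about 30 µL received 50 nL stock; many hits fall short of the cut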
RanGTP-Imp inh: disruptors of Ran-importin-beta complex formation – biochemical, FRET, CFP-Ran, YFP-importin-beta, homogeneous, primary screen | AID 2216 | inhibition, % (test concentration not listed) | hit rate 1.1% among 300,000 | cell-free CFP-Ran/YFP-importin-beta FRET ratio;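 active = most replicates above 15%; inconclusive = exactly half above 15%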;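 note: 0% = DMSO wells and 100% = Ran loaded with GDP instead of GTP; wells of about 40 µL received 100 nL stock; the first replicate is given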
T cruzi repl: blocks replication of Trypanosoma cruzi | T. cruzi beta-gal in NIH3T3, luminescence, 90 h | inhibition, % (no concentration beside the values) | hit rate 1.4% among 300,000;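 active = mean inhibition across valid replicates above about 55%, limit read from the data; inconclusive = mean below that limit but half or more replicates reach it; inactive = mean below it, under half of replicates reach it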;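 note: signal also drops with host cell toxicity which is not excluded here; 0% = plate median of DMSO wells and 100% = zero luminescence signal; higher percent means less beta-gal luminescence so fewer parasites; stock transfer was 50 nL into about 50 µL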
Beta apoptosis: beta cell apoptosis inhibition; protection from apoptosis, % (no concentration beside the values); INS-1E cytokine-induced death, ATP luminescence, 48 h; percent of positive-control rescue, neutral wells zero; AID 435005; hit rate 0.8% among 300,000;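 active = all replicates at 75% or more, or half of them and the mean; inconclusive = half reach 75% but not the mean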;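 note: 0% = cytokine-treated negative control wells and 100% = positive control rescue; higher means more ATP so stronger rescue from cytokine killing; wells of about 40 µL received 100 nL stock; the first replicate is given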
LANA-H2A inh: blocks KSHV LANA binding to histone H2A/H2B; Q9QR71; cell-free LANA-H2A/H2B peptide, fluorescence polarization; hit rate 0.6% among 320,000; AID 2629; inhibition, % (concentration not given with the values); in the data active = inhibition mostly above about 10%, no sharp cut-off; inactive = mostly below about 6.7%;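 note: stock transfer was 7.5 nL into about 10 µL; 0% = median of vehicle wells and 100% = median of positive control wells; one replicate is shown; the record names a cut of 25% in any replicate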
Numbers without * were called inactive. Random draw from the library. Share with any hit: about 4.3%.

What do the screens show for `O=c1cc(-c2ccccc2[N+](=O)[O-])oc2ccccc12`?
Vif TR-FRET: -2.8%; Calb FLC: 4.1; MLL AF4-AF9 inh: 0.0; Bfl-1 A1 inh: 2.1; RanGTP-Imp inh: -1.0; T cruzi repl: -4.4; Beta apoptosis: -0.4; LANA-H2A inh: -4.3

What do the screens show for `CCSc1nc2sc3c(c2c(=O)n1-c1ccccc1)CCN(C)C3`?
Calb FLC: 27.7; MLL AF4-AF9 inh: 4.0; Bfl-1 A1 inh: 0.3; RanGTP-Imp inh: -1.2; T cruzi repl: 48.1; LANA-H2A inh: -1.6

What do the screens show for `COc1ccc(-n2c(SCC(=O)Nc3nccs3)nnc2-c2ccccc2)cc1`?
Vif TR-FRET: 7.8%; Calb FLC: -3.1; Bfl-1 A1 inh: 0.6; RanGTP-Imp inh: 2.1; T cruzi repl: 8.4; Beta apoptosis: -1.9; LANA-H2A inh: 0.6

How did O=C1ON=C(c2ccc(Cl)c([N+](=O)[O-])c2)/C1=C/c1cccc([N+](=O)[O-])c1O do in these assays?
MLL AF4-AF9 inh: -1.8; Bfl-1 A1 inh: -0.5; Beta apoptosis: -0.8; LANA-H2A inh: 3.1

How did O=C1c2ccsc2SCCN1Cc1ccccc1Cl do in these assays?
Vif TR-FRET: 3.8%; Calb FLC: -3.5; Bfl-1 A1 inh: -0.2; RanGTP-Imp inh: 3.1; T cruzi repl: 13.2; Beta apoptosis: -6.0; LANA-H2A inh: 5.0

What do the screens show for `O=C(NNc1ccccc1)Nc1ccccc1F`?
Calb FLC: 5.7; MLL AF4-AF9 inh: -3.4; Bfl-1 A1 inh: -0.1; RanGTP-Imp inh: 0.6; T cruzi repl: 0.7; Beta apoptosis: -8.2; LANA-H2A inh: -1.3

What do the screens show for `O=S(=O)(Nc1cccc(-c2ccc(N3CCCCCC3)nn2)c1)c1ccc(F)cc1`?
Calb FLC: 17.3; MLL AF4-AF9 inh: -2.1; Bfl-1 A1 inh: -0.8; RanGTP-Imp inh: 2.3; T cruzi repl: 15.9; Beta apoptosis: 3.8; LANA-H2A inh: -3.3

How did CCN(CC)CC(=O)Nc1c(Br)ccc2c1OCO2 do in these assays?
Vif TR-FRET: 1.8%; Calb FLC: 6.8; Bfl-1 A1 inh: -0.1; RanGTP-Imp inh: 3.7; T cruzi repl: -9.4; Beta apoptosis: -0.7; LANA-H2A inh: -2.2

Results for CC1=NN(c2ccc(C)c(C)c2)C(=O)/C1=C\C=C\c1ccc([N+](=O)[O-])o1 ?
Vif TR-FRET: -2.8%; Calb FLC: 2.4; MLL AF4-AF9 inh: 1.0; Bfl-1 A1 inh: 0.5; RanGTP-Imp inh: -3.1; T cruzi repl: 4.3; Beta apoptosis: 83.7*; LANA-H2A inh: -3.1

How did Cc1cc(S(=O)(=O)Cc2noc(-c3c(C)noc3C)n2)c(C)cc1Cl do in these assays?
Vif TR-FRET: -1.6%; Calb FLC: 1.8; Bfl-1 A1 inh: -0.4; RanGTP-Imp inh: 1.4; T cruzi repl: 20.4; Beta apoptosis: -2.1; LANA-H2A inh: 4.4

Results for CC1CCc2c(cnc3ncnn23)C1 (stereo not given) ?
Vif TR-FRET: 13.7%; Calb FLC: -0.8; MLL AF4-AF9 inh: -3.3; Bfl-1 A1 inh: 0.1; RanGTP-Imp inh: -2.1; T cruzi repl: 5.8; Beta apoptosis: 1.1; LANA-H2A inh: 2.0

Results for COC(=O)COc1ccc(Oc2cc(C)nc(SC)n2)nn1 ?
Vif TR-FRET: 0.0%; Calb FLC: 13.4; MLL AF4-AF9 inh: 0.2; Bfl-1 A1 inh: 0.0; RanGTP-Imp inh: -1.2; T cruzi repl: 2.8; Beta apoptosis: -5.2; LANA-H2A inh: -4.2

Results for CCn1cc(C(=O)O)c(=O)c2cnc(N3CCN(C(=S)Nc4ccccc4)CC3)nc21 ?
Vif TR-FRET: -5.4%; Calb FLC: 5.3; MLL AF4-AF9 inh: -2.3; Bfl-1 A1 inh: 0.8; RanGTP-Imp inh: 3.0; T cruzi repl: 1.9; Beta apoptosis: -13.0; LANA-H2A inh: 3.1

How did O=C(CCNC(=O)c1ccc(Br)cc1)NCC(c1ccco1)N1CCCCC1 (stereo not given) do in these assays?
Vif TR-FRET: -9.6%; MLL AF4-AF9 inh: 0.5; Bfl-1 A1 inh: 0.1; Beta apoptosis: -0.3

What do the screens show for `Nc1cccc2c1C(=O)N(Cc1cccc(Cl)c1)C2=O`?
Vif TR-FRET: -6.7%; Calb FLC: 0.0; MLL AF4-AF9 inh: -12.6; Bfl-1 A1 inh: 0.4; RanGTP-Imp inh: -3.3; T cruzi repl: -17.3; Beta apoptosis: 0.1; LANA-H2A inh: 0.2

Results for O=[N+]([O-])c1ccc(OS(=O)(=O)Cc2ccccc2)cc1 ?
Calb FLC: 6.6; MLL AF4-AF9 inh: 3.4; Bfl-1 A1 inh: 0.9; RanGTP-Imp inh: 0.7; T cruzi repl: 1.1; Beta apoptosis: -9.8; LANA-H2A inh: 0.9

Results for CC(C)(C)NC(=O)C(c1c[nH]c2ccccc12)N(C(=O)Cn1nnc(-c2ccc(Cl)cc2)n1)c1ccccc1F (stereo not given) ?
Vif TR-FRET: 28.4%; Calb FLC: 0.3; Bfl-1 A1 inh: 1.4; RanGTP-Imp inh: 1.4; T cruzi repl: 55.3*; Beta apoptosis: 9.6; LANA-H2A inh: 2.6

How did CCOc1ccccc1NC(=O)NC(C)c1ccc2c(c1)OCO2 (stereo not given) do in these assays?
Calb FLC: 0.1; MLL AF4-AF9 inh: -12.4; Bfl-1 A1 inh: -0.4; RanGTP-Imp inh: 2.1; T cruzi repl: 3.2; Beta apoptosis: -3.9; LANA-H2A inh: 0.5

Results for CCOC(=O)C(C)Sc1ccc2nnc(-c3ccc(F)cc3)n2n1 (stereo not given) ?
Vif TR-FRET: -4.1%; Calb FLC: -20.1; Bfl-1 A1 inh: 0.3; T cruzi repl: -4.6; Beta apoptosis: 2.6; LANA-H2A inh: -1.2

What do the screens show for `CCc1nnc(NC(=O)c2ccc(NS(=O)(=O)c3ccccc3)cc2)s1`?
Vif TR-FRET: inconclusive; Calb FLC: 0.8; Bfl-1 A1 inh: -0.1; RanGTP-Imp inh: -3.0; T cruzi repl: 6.8; Beta apoptosis: 1.3; LANA-H2A inh: 0.5

How did COc1ccc(S(=O)(=O)Cc2ccc(C(=O)N3CCN(c4cc(C)ccc4C)CC3)o2)cc1 do in these assays?
Calb FLC: 0.1; MLL AF4-AF9 inh: 3.1; Bfl-1 A1 inh: -0.5; RanGTP-Imp inh: 0.0; T cruzi repl: 10.9; Beta apoptosis: -0.4; LANA-H2A inh: -4.2

What do the screens show for `Cc1ccccc1CN1CCN(S(=O)(=O)c2cccs2)CC1`?
Vif TR-FRET: -5.5%; Calb FLC: -2.2; MLL AF4-AF9 inh: -1.8; Bfl-1 A1 inh: 0.5; RanGTP-Imp inh: -0.8; T cruzi repl: 30.4; Beta apoptosis: -2.1; LANA-H2A inh: 8.8

What do the screens show for `Cc1cccc([N+](=O)[O-])c1NC(=O)COC(=O)C1CCCO1` (stereo not given)?
Vif TR-FRET: -11.4%; MLL AF4-AF9 inh: inconclusive; Bfl-1 A1 inh: -0.4; Beta apoptosis: -4.1; LANA-H2A inh: -1.3

Results for COc1ccc(NC(=O)Cc2nnc(SCC(=O)Nc3nccs3)n2C)cc1 ?
Vif TR-FRET: 0.4%; Calb FLC: -8.0; MLL AF4-AF9 inh: -2.0; Bfl-1 A1 inh: 2.1; RanGTP-Imp inh: -0.4; T cruzi repl: -1.2; Beta apoptosis: -7.0; LANA-H2A inh: 5.6

What do the screens show for `COc1ccc(C(CNC(=O)Nc2ccccc2)N2CCN(C)CC2)cc1` (stereo not given)?
Vif TR-FRET: -0.2%; Calb FLC: -17.2; MLL AF4-AF9 inh: 1.1; Bfl-1 A1 inh: -0.4; RanGTP-Imp inh: -4.3; T cruzi repl: 12.8; Beta apoptosis: -9.4; LANA-H2A inh: 4.0

How did CCC1CCCCN1CCNS(=O)(=O)c1ccc2c(c1)oc(=O)n2C (stereo not given) do in these assays?
Vif TR-FRET: 24.6%; Calb FLC: 4.9; MLL AF4-AF9 inh: -1.7; Bfl-1 A1 inh: 0.8; RanGTP-Imp inh: 1.7; T cruzi repl: -8.5; Beta apoptosis: 1.4; LANA-H2A inh: -0.2

What do the screens show for `COc1ccc(NS(=O)(=O)c2cccc(C(=O)OCC(=O)N3CCN(c4ccc(OC)cc4)CC3)c2)cc1`?
Vif TR-FRET: -6.1%; MLL AF4-AF9 inh: -11.0; Bfl-1 A1 inh: -0.7; RanGTP-Imp inh: 5.6; T cruzi repl: 7.3; Beta apoptosis: 19.2; LANA-H2A inh: -8.8

How did O=C(/C=C/NNC(=O)c1cccc(Br)c1)c1cccc(Br)c1 do in these assays?
Vif TR-FRET: -2.5%; Calb FLC: -8.2; Bfl-1 A1 inh: 0.5; RanGTP-Imp inh: 6.2; T cruzi repl: 14.5; LANA-H2A inh: 0.1

Results for COc1cccc(OC)c1C(=O)NC(=S)NCc1ccccc1 ?
Vif TR-FRET: -6.0%; Calb FLC: 3.4; MLL AF4-AF9 inh: 1.1; Bfl-1 A1 inh: -0.5; RanGTP-Imp inh: 3.7; T cruzi repl: 8.7; Beta apoptosis: -0.9; LANA-H2A inh: 2.9

How did C/C(=N\O)C(C)(C)Nc1cccc(F)c1 do in these assays?
Vif TR-FRET: -11.1%; Calb FLC: -3.6; MLL AF4-AF9 inh: -6.2; Bfl-1 A1 inh: 1.5; RanGTP-Imp inh: 4.9; T cruzi repl: -10.3; Beta apoptosis: -3.0; LANA-H2A inh: 3.2

What do the screens show for `O=C(CS(=O)(=O)c1ccccc1)N1CCc2ccccc21`?
Vif TR-FRET: 23.2%; Calb FLC: -7.5; MLL AF4-AF9 inh: 0.8; Bfl-1 A1 inh: -2.6; RanGTP-Imp inh: inconclusive; T cruzi repl: -19.0; Beta apoptosis: -2.5; LANA-H2A inh: -6.3

What do the screens show for `NS(=O)(=O)c1ccc(CCNC2CC(=O)N(CCc3ccccc3)C2=O)cc1` (stereo not given)?
Vif TR-FRET: 2.4%; Bfl-1 A1 inh: 1.0; Beta apoptosis: -4.1; LANA-H2A inh: -3.5

How did COc1ccc(NC(=S)N2CCNC(=O)C2CC(=O)Nc2cccc(Cl)c2C)cc1 (stereo not given) do in these assays?
Calb FLC: -20.5; MLL AF4-AF9 inh: -1.3; Bfl-1 A1 inh: -0.5; RanGTP-Imp inh: inconclusive; T cruzi repl: -13.2; Beta apoptosis: -8.5; LANA-H2A inh: 6.3

Results for CCN(CC)c1ccc(C(=O)NNC(=O)CN2C(=O)NC3(CCCCC3)C2=O)cc1 ?
Vif TR-FRET: -3.7%; Calb FLC: 0.4; MLL AF4-AF9 inh: -2.0; Bfl-1 A1 inh: 0.3; RanGTP-Imp inh: 1.3; T cruzi repl: 2.1; Beta apoptosis: -1.0

Results for CC(C)CC1=C/C(=C/c2ccc(-c3ccccc3)o2)C(=O)O1 ?
Vif TR-FRET: 26.8%; Calb FLC: 17.8; MLL AF4-AF9 inh: 6.6; Bfl-1 A1 inh: -0.1; RanGTP-Imp inh: -0.3; T cruzi repl: -22.5; Beta apoptosis: -0.4; LANA-H2A inh: 0.4

How did Cc1ccc(/C=C2/NC(=O)N(Cc3ccccc3)C2=O)o1 do in these assays?
Vif TR-FRET: inconclusive; Calb FLC: -4.3; Bfl-1 A1 inh: 0.8; RanGTP-Imp inh: -1.1; T cruzi repl: -2.9; Beta apoptosis: 0.2; LANA-H2A inh: -3.4
